Screening data (PubChem)
GALR2 ag: agonists of human galanin receptor 2 (GALR2); O43603; GALR2-expressing cells, agonist activation read-out; activation, %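 (tested at 5 µM)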; 140,000 compounds, 0.48% hits;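 active means above mean plus 3 SD of all compounds, about 5% in these data, not always enough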;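 further: 0% = vehicle buffer wells and 100% = reference agonist at full effect; tested in CHO reporter cells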
Insulin prom inh: TRM-6 insulin promoter activity inhibition; inhibition, % at 2 µM; TRM-6 cells (human fetal islet line), insulin promoter-eGFP reporter, imaging; reporter expression induced with tamoxifen; 130,000 compounds, 0.9% hits; AID 1273;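 active means inhibition above the mean plus 3 SD, with well images judged a real hit on visual review, cut at about 60% in these data, passing the limit was not always enough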
HSV replic up: increases HSV replication in cells; HSV replication augmentation in cells, fold increase; maximum fold increase; 220,000 compounds, 0.005% hits; AID 1956;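 active means peak rise of 1.5-fold or more in the series; tested in PC3 cells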;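 further: first round at 10 µM; read as green reporter fluorescence; hits show the peak of a series up to 25 µM; 1 = signal of infected wells without compound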
PKD1 kinase inh: blocks activity of human protein kinase D1; inhibition, %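 (about 10 µM by stock and volumes)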; 200,000 compounds, 0.056% hits; AID 797; PKD1 kinase fluorescence polarization assay;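 active means inhibition of 50% or more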;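 further: controls were vehicle for no effect and a reference inhibitor for full effect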
Target sequence (Q15139 whole entry, looked up): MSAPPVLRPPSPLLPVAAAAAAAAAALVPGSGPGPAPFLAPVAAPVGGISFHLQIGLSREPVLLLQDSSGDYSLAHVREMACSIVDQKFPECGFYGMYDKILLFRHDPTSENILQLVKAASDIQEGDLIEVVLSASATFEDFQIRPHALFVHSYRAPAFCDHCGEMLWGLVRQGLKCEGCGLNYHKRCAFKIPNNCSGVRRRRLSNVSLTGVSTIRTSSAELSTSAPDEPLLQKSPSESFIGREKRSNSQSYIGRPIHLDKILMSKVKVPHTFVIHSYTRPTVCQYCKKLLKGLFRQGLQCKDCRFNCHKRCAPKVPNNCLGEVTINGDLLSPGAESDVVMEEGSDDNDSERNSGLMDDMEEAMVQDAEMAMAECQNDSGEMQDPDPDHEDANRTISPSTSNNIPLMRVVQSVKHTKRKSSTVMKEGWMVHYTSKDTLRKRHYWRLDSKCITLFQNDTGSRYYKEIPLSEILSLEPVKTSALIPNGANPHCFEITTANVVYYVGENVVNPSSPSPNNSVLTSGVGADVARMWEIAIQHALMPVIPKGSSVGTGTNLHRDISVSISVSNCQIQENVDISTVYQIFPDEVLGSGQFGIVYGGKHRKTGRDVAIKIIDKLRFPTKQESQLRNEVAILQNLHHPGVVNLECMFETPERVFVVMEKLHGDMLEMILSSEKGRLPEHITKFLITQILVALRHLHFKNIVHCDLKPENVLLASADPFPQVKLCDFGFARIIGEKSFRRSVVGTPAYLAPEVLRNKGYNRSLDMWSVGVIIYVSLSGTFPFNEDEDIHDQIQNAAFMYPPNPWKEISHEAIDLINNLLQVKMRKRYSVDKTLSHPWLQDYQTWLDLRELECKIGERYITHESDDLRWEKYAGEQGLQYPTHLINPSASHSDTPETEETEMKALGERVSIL
RGS16-Gao HTS: modulates binding between human RGS16 and Galphao; bead-based flow cytometry RGS16-Galphao binding, fluorescence; actives lie on both sides; O15492+P09471; 220,000 compounds, 0.38% hits; binding response (% of control), % at 10 µM;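 active means below 25% or above 175%, edge rows of some plates excepted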;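 further: Galphao activated by GDP with aluminum fluoride before binding; 100% = wells without compound and 0% = beads without RGS; some results beyond the cut were filed as inactive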
Insulin prom inh cell count: recorded beside Insulin prom inh, whose call it bears; normalized cell count, %; measured here: cell count, toxicity; reference of the scale not given here;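 cells exposed to compound for 48 h; stained nuclei by imaging scaled within each plate; lower means fewer cells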
HSV replic up primary fold: second read-out of HSV replic up, no call of its own (marks repeat the call); fold increase; compound at 10 µM; measured here: primary screen fold increase 10 uM; tested in PC3 cells;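 GFP signal in the first replicate; 1 = infected wells without compound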
Starred values were filed as active, the others as inactive; i = inactive; nt = no result given. Compounds were not picked by outcome; 1.3% or so of the library scored in one or more.

SMILES | GALR2 ag | Insulin prom inh | Insulin prom inh cell count | HSV replic up | HSV replic up primary fold | PKD1 kinase inh | RGS16-Gao HTS
CN(c1ccccc1)S(=O)(=O)c1cccc(NC(=O)CSc2nnc(N)s2)c1 | -1.0 | 0 | 80 | i | 1 | -17 | 108
CCn1c(-c2csc(C(C)C)c2)n[nH]c1=S | 0.0 | nt | nt | i | 0.95 | -3 | 106
CN(C)c1nc(N)nc(CSc2nnnn2-c2ccccc2)n1 | -2.1 | -23 | 97 | i | 0.94 | 2 | 97
CCCCC(CC)CNC(=O)CCS(=O)(=O)c1cccc2nsnc12 (configuration not stated) | -0.3 | -69 | 101 | i | 0.91 | 0 | 96
CC1CCN(Cc2ccc(NC(=O)CC3Oc4ccccc4NC3=O)cc2)CC1 (configuration not stated) | -2.6 | nt | nt | i | 0.85 | 0 | 101
Cc1cc(C)n(-c2ccc3nncn3n2)n1 | nt | nt | nt | i | 0.97 | 1 | 101
O=C(CNc1ccc(Cl)cc1)c1ccc(Br)cc1 | nt | nt | nt | i | 0.96 | 6 | 97
CN(C(=O)c1ccc(C#N)cc1)c1nnc(-c2ccccn2)s1 | -2.5 | 71 | 125 | i | 0.87 | -2 | 102
COc1ccc(C(=O)C2CCN(S(=O)(=O)c3ccc4c(c3)OCCO4)CC2)cc1 | -2.6 | -14 | 83 | i | 0.79 | -3 | 103
Nc1ccn(-c2ccccc2)c(=O)c1 | -3.6 | nt | nt | i | 0.97 | 1 | 95
Cc1c(-c2ccc(Cl)cc2)[n+](=O)c(-c2ccccc2)cn1[O-] | nt | nt | nt | i | 0.99 | nt | 104
Fc1cnc(N2CCOCC2)nc1N1CCOCC1 | nt | nt | nt | i | 1.2 | 8 | 100
CC(Oc1ccccc1)C(=O)OCC(=O)NC(=O)NCc1ccco1 (configuration not stated) | -1.6 | 25 | 112 | i | 0.95 | -6 | 122
Cc1cc(C)c2nc(N3CCCC(C(=O)N4CCC(C(N)=O)CC4)C3)sc2c1 (configuration not stated) | -0.8 | nt | nt | i | 1.1 | -7 | 93
CCCCCC/C(=N/O)c1ccccn1 | -2.4 | nt | nt | i | 0.64 | -8 | 103
CCOC(=O)C1CCCN(C2CCN(Cc3nc(Cc4ccccc4)no3)CC2)C1 (configuration not stated) | nt | nt | nt | i | 1.1 | 3 | 97
Cc1ccc(C2CC2c2n[nH]c(=S)n2-c2cccc(C)c2)cc1 (configuration not stated) | nt | nt | nt | i | 0.88 | 0 | 98
CC1=NNC(=O)c2ccccc2O1 | nt | 17 | 91 | i | 1.3 | 2 | 100
O=[N+]([O-])c1cccc(C(=S)N2CCN(c3ccc(F)cc3)CC2)c1 | nt | nt | nt | i | 0.97 | -4 | 100
Cc1c(Cl)cccc1NC(=S)NCCN1CCOCC1 | -0.8 | 0 | 122 | i | 1 | 5 | 104
CSc1ccccc1NC(=S)Nc1cc(C)cc(C)c1 | -0.3 | nt | nt | i | 0.86 | -6 | 100
Cc1ccc(C(C)n2cc(C(=O)NCc3ccncc3)nn2)cc1 (configuration not stated) | -0.7 | -9 | 98 | i | 0.98 | 2 | 98
CCOCCN(C(=O)c1ccccc1Cl)c1ccccc1 | nt | nt | nt | i | 0.98 | nt | 100
CCOCC(=O)Nc1c(C(=O)OCC)oc2ccccc12 | -1.9 | 38 | 110 | i | 0.94 | -15 | 103
COc1ccc(CCN2C(=O)N(c3ccc(OC)cc3)C(=O)C2CC(=O)Nc2ccc(OC)cc2)cc1 (configuration not stated) | nt | nt | nt | i | 0.88 | nt | 87
CCCn1c(-c2ccc[nH]c2=O)nc2cc(C)c(C)cc21 | nt | nt | nt | i | 0.9 | -1 | 94
COc1ccc(N2CCN(C(=O)C3CCN(S(=O)(=O)c4ccc(C)cc4)CC3)CC2)cc1 | nt | nt | nt | i | 0.99 | -4 | 104
CSc1ncccc1C(=O)OCC(=O)N(C)C1CCS(=O)(=O)C1 (configuration not stated) | -1.9 | 0 | 112 | i | 0.97 | -2 | 102
COC(=O)c1ccc(CSc2n[nH]c(=S)s2)o1 | -1.0 | nt | nt | i | 0.79 | -6 | 102
CCNS(=O)(=O)c1ccc(CCC(=O)NCCc2ccc(OC)cc2)cc1 | nt | 10 | 127 | i | 0.99 | -7 | 100
CCCCCC(=O)Nc1ccc(Cc2ccncc2)cc1 | -2.8 | -319 | 44 | i | 0.97 | -4 | 79
COc1cccc(-c2cc(C(=O)N3CCN(Cc4ccccc4)CC3)no2)c1 | -4.0 | nt | nt | i | 1 | 14 | 102
CC1(C(=O)NCc2cccnc2)CCC(=O)N1CCc1ccccc1 (configuration not stated) | -1.6 | nt | nt | i | 0.96 | -15 | 105
COc1ccc(/C=C/C(=O)NC(=S)NNC(=O)c2cccnc2)cc1OC | -1.3 | -42 | 98 | i | 0.94 | -3 | 94
Cc1ccc(OCc2ccc(C(=O)N3CCOCC3)cc2)cc1C | -1.5 | 20 | 116 | i | 0.78 | -3 | 103
Oc1ccc(/C=N/n2cnn(Cc3ccccc3Cl)c2=S)c(O)c1 | 1.0 | 11 | 91 | i | 0.93 | -5 | 85
Cc1[nH]nc(-c2ccc(O)c(C)c2O)c1Oc1ccccc1 | -4.4 | 52 | 42 | i | 0.92 | 2 | 103
C=CCOC(=O)Nc1c(C(=O)OC)[nH]c2ccc(Cl)cc12 | -2.2 | nt | nt | i | 0.91 | -17 | 102
Cc1cc(OCCSc2nnc(-c3cccs3)n2C)ccc1Cl | -1.2 | -47 | 150 | i | 0.87 | 1 | 99
Cc1ccc(-c2cc(N)n[nH]2)cc1 | -3.1 | 25 | 61 | i | 0.87 | -5 | 103

Whole records from above. Order of values: GALR2 ag, Insulin prom inh, Insulin prom inh cell count, HSV replic up, HSV replic up primary fold, PKD1 kinase inh, RGS16-Gao HTS
CCNS(=O)(=O)c1ccc(CCC(=O)NCCc2ccc(OC)cc2)cc1 is listed with nt, 10, 127, i, 0.99, -7, 100
Cc1cc(OCCSc2nnc(-c3cccs3)n2C)ccc1Cl is listed with -1.2, -47, 150, i, 0.87, 1, 99

Of the compounds above, these have a thiophene ring, fused or not:
SMILES | GALR2 ag | Insulin prom inh | Insulin prom inh cell count | HSV replic up | HSV replic up primary fold | PKD1 kinase inh | RGS16-Gao HTS
CCn1c(-c2csc(C(C)C)c2)n[nH]c1=S | 0.0 | nt | nt | i | 0.95 | -3 | 106
Cc1cc(OCCSc2nnc(-c3cccs3)n2C)ccc1Cl | -1.2 | -47 | 150 | i | 0.87 | 1 | 99

Looked up above:
CCOCCN(C(=O)c1ccccc1Cl)c1ccccc1 in RGS16-Gao HTS shows 100
Cc1cc(OCCSc2nnc(-c3cccs3)n2C)ccc1Cl in RGS16-Gao HTS shows 99
Cc1ccc(C(C)n2cc(C(=O)NCc3ccncc3)nn2)cc1 (configuration not stated) in RGS16-Gao HTS shows 98

(next part)
SMILES | GALR2 ag | Insulin prom inh | Insulin prom inh cell count | HSV replic up | HSV replic up primary fold | PKD1 kinase inh | RGS16-Gao HTS
CC1(C)CC(=O)c2cc(OCC(=O)NCCCN3CCN(c4ccccc4F)CC3)ccc2O1 | -0.1 | -73 | 112 | i | 0.73 | -1 | 103
CN(CCO)S(=O)(=O)c1ccc2c(c1)C(=NO)c1cc(S(=O)(=O)N(C)CCO)ccc1-2 | nt | nt | nt | i | 0.98 | -7 | 102
c1coc(CNc2ncnc3[nH]ncc23)c1 | nt | nt | nt | i | 1.2 | nt | 98
COc1ccc(OC)c(N2C(=O)CC(Cc3ccc(C)cc3)C2=O)c1 (configuration not stated) | 0.8 | -100 | 70 | i | 0.96 | 1 | 63
CCN1C(=O)/C(=C\N(C)C)NC1=S | -0.7 | 10 | 135 | i | 0.95 | -10 | 111
C[n+]1cccc(/C=N/NC(=O)CC23CC4CC(CC(C4)C2)C3)c1 | nt | nt | nt | i | 0.93 | nt | 116
O=C(/C=C/c1ccccc1[N+](=O)[O-])NCc1cccnc1 | 0.6 | nt | nt | i | 1.2 | -10 | 101
CN1OC(COC(=O)c2ccc(Cl)cc2Cl)CC1c1ccccc1 (configuration not stated) | -1.4 | -3 | 139 | i | 0.97 | -13 | 96
CN(Cc1ccccc1)c1nc2c(c(=O)[nH]c(=O)n2C)n1Cc1ccccc1 | -1.6 | 6 | 105 | i | 0.72 | -13 | 95
O=C(CSc1nnc(-c2ccc(C(F)(F)F)cn2)s1)c1ccc(Cl)cc1 | nt | nt | nt | i | 1.3 | nt | 91
COC(=O)CNC(=O)CCCCC(=O)NCC(=O)OC | -2.0 | 18 | 99 | i | 0.92 | -15 | 105
Cc1cc2c(cc1C)-c1nnnn1C(C)(C)C2 | 0.5 | 13 | 46 | i | 0.95 | -8 | 106
CCOc1ccc2c(O)csc2c1 | -0.4 | 12 | 207 | i | 0.98 | -1 | 102
COc1cc(C(=O)N2CCN(C(=O)CC(C)C)CC2)cc(OC)c1OC | -2.2 | 38 | 72 | i | 0.97 | -2 | 101
Cc1ccc(Nc2nc(N)nc(CN3CCN(Cc4ccc5c(c4)OCO5)CC3)n2)cc1Cl | -1.3 | nt | nt | i | 0.54 | -5 | -170
C=CCn1c(SCC(=O)Nc2cc(C)on2)nc2sc3c(c2c1=O)CCCC3 | -0.8 | 16 | 107 | nt | nt | -7 | 83
COc1ccc(C2C/C(=N\O)C(C)(C)O2)cc1 (configuration not stated) | -0.8 | nt | nt | i | 1.1 | -3 | 107
Cc1ccc(-n2c(N)c(-c3nc4ccccc4n3C)sc2=S)cc1 | -2.6 | -27 | 55 | i | 0.9 | -13 | 68
CCC1=NN(C(=O)c2cccnc2)C(O)(C(F)(F)F)C1 (configuration not stated) | -1.3 | 7 | 101 | i | 0.87 | -7 | 100
Cc1ccc(SCC(=O)NCCN2C(=O)CSC2=O)c(C)c1 | -2.4 | -7 | 103 | i | 0.98 | 3 | 98
Cn1c(SCC(=O)c2ccccc2)nnc1-c1cccc(N)c1 | -0.8 | 64 | 141 | i | 0.96 | -7 | -92*
Cc1nc(SCC(O)CO)c([N+](=O)[O-])[nH]1 (configuration not stated) | -3.4 | -293 | 75 | i | 0.8 | -4 | 99
Cc1c(C(=O)OCC(=O)Nc2ccc(C(N)=O)cc2)cccc1[N+](=O)[O-] | nt | nt | nt | i | 0.94 | 1 | 102
Cc1ccc(C2CC(=O)NC(SCC(N)=O)=C2C#N)s1 (configuration not stated) | nt | nt | nt | i | 1.1 | -5 | 99
CC(C)NC(=O)c1ccccc1NC(=O)CCS(=O)(=O)Cc1ccccc1 | -2.9 | -1 | 140 | i | 1 | -9 | 101
Nc1nc(NC(=O)c2cccnc2)nn1-c1ccccc1 | -0.5 | nt | nt | i | 0.9 | -5 | 94
COc1ccc(N(CC(=O)N/N=C/c2ccc(OC3CSC3)cc2)S(=O)(=O)c2ccccc2)cc1 | -0.6 | 41 | 154 | i | 0.89 | -3 | 97
CCOC(=O)c1ccc(NC(=O)CSc2nc3c(c(=O)n2CC)SC(C)C3)cc1 (configuration not stated) | -0.6 | nt | nt | i | 0.86 | -15 | 99
CCOc1cc(CN2CCOCC2)cc(C(C)=O)c1 | -0.1 | 0 | 131 | i | 1 | -4 | 107
CC(C)(C)n1nc2c(c1NC(=O)c1ccc(Br)o1)CS(=O)C2 (configuration not stated) | -1.5 | nt | nt | i | 0.86 | -8 | 101
COc1ccc2[nH]c(=O)c(COC(=O)c3ccco3)cc2c1 | -2.6 | -38 | 126 | nt | nt | -8 | 100
Cc1c(-c2cccc(Cl)c2)nc2ccccc2c1C(=O)OC/C(O)=C(\C#N)c1nc2ccccc2[nH]1 | nt | nt | nt | i | 1 | 0 | 99
O=C(Nc1ncc(Cc2ccc(SC(F)F)cc2)s1)c1ccc(OC(F)F)cc1 | 2.6 | -157 | 8 | i | 0.64 | -4 | 104
Cc1ccc(N/C=C/C(=O)c2ccco2)c(O)c1 | nt | nt | nt | i | 1.2 | nt | 101
CC(=O)Nc1cccc(/C(C)=N/NS(=O)(=O)c2ccccc2)c1 | nt | nt | nt | i | 0.83 | -3 | 96
N/C(=N\OC(=O)c1cccc2ccccc12)c1ccncc1 | nt | nt | nt | i | 1.1 | nt | 105
CCC(=O)N1CCN(c2ccc(NC(=O)c3ccc(C#N)cc3F)cc2Cl)CC1 | nt | nt | nt | i | 0.94 | -1 | 100
COC(=O)c1[nH]c2ccccc2c1NC(=O)C(C)N1CCN(C(=O)c2ccco2)CC1 (configuration not stated) | -0.3 | 35 | 184 | i | 1 | 1 | 96
CCCCN1C(=S)SC(C)(C)C1/[N+]([O-])=C/c1ccc(S(=O)(=O)NC)cc1 (configuration not stated) | nt | nt | nt | i | 1.1 | nt | 101
Cc1noc2ncc(C(=O)c3cc(F)ccc3O)cc12 | -2.0 | 40 | 139 | i | 0.88 | -9 | 100
CN=C1SC(CC(=O)Nc2c(C)cccc2C)C(=O)N1/N=C/c1cccs1 (configuration not stated) | 1.1 | -32 | 131 | i | 1.1 | 0 | 108
